ClpP mod = qHTS Assay for Activators of ClpP | purified B. subtilis ClpP, FRET peptide cleavage, 20 min | ATP-dependent Clp protease proteolytic subunit (Bacillus subtilis (strain 168)), P80244 | 1.9% of 340,000 active | Potency, µM (highest dose often 57.5 µM), without a hit: at the highest dose activity change, negative = active; active = well fitted falling curve with a large enough effect; inconclusive = small, poorly fitted or top-dose-only effect; inactive = no such curve, though single readings can be large or run the other way; further: potency means the concentration at half of the fitted maximal effect; the source files actives as falling curves though it sought activators and does not explain the sign; nearly all actives have a fitted effect of over 65% in size; many hits overshoot -100%
Target sequence (P80244 whole entry, looked up): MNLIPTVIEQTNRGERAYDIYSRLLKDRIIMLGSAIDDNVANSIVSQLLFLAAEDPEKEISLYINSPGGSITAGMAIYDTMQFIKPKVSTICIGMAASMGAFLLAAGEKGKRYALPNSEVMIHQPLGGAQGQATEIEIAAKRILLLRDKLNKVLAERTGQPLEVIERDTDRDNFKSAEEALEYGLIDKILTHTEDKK
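Buffer: 100 mM Tris/HCl pH8, 100 mM KCl, 0.05% low protease BSA, 2.5% glycerol, 0.01% Tween-20. ClpP 10 microg/mL final; 20 min RT; delta FRET normalized to ADEP and DMSO controls.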
Menin-MLL FL inh = displaces fluorescein MLL peptide from human menin. FP activity change, % at 61.4 µM. 290,000 tested, under 10 active. Fluorescence polarization, fluorescein-MLL peptide displacement from menin; inconclusive = falling polarisation curve, or a change in total fluorescence; inactive = total fluorescence flat and polarisation flat or rising; no compound was filed as active; the % refers to the polarisation; negative = inhibition;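 further: % of control where 0% means no effect; inhibitors lower the polarisation; unlabelled MLL peptide was the positive control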
CtBP-E1A inh = inhibitors of CtBP/E1A interaction. activity change, % (no concentration beside the values). AlphaScreen GST-E1A/His-CtBP binding, 1536-well; active compounds read low; control for the full effect not named in the record. 0.49% of 340,000 active. AID 651724; in the data active means activity change below about -65%; inconclusive means about -30% to -65%; inactive means above about -30%; further: on the % scale 0 is the no-effect control and ±100 the full control effect
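In 5 uL wells, 23 nL compound meets equimolar GST-E1A and His-CtBP (5X stock 125 nM each) for 2 h, 37 °C. Beads (5X, 50 ug/mL) then 1 h, 37 °C, dark.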
TRPV1 PAM = potentiators of human vanilloid receptor 1 (TRPV1); Q8NER1; 0.02% of 320,000 active; TRPV1-expressing cells, Fluo-8 calcium influx, capsaicin EC20 potentiation; host cell line not named in the record; control for the full effect not named in the record; potentiation, % at 8.33 µM; AID 540277; active means potentiation above 80%; inconclusive means 30% to 80%; inactive means below 30%; further: 0% is about no effect
Target sequence (Q8NER1 whole entry, looked up): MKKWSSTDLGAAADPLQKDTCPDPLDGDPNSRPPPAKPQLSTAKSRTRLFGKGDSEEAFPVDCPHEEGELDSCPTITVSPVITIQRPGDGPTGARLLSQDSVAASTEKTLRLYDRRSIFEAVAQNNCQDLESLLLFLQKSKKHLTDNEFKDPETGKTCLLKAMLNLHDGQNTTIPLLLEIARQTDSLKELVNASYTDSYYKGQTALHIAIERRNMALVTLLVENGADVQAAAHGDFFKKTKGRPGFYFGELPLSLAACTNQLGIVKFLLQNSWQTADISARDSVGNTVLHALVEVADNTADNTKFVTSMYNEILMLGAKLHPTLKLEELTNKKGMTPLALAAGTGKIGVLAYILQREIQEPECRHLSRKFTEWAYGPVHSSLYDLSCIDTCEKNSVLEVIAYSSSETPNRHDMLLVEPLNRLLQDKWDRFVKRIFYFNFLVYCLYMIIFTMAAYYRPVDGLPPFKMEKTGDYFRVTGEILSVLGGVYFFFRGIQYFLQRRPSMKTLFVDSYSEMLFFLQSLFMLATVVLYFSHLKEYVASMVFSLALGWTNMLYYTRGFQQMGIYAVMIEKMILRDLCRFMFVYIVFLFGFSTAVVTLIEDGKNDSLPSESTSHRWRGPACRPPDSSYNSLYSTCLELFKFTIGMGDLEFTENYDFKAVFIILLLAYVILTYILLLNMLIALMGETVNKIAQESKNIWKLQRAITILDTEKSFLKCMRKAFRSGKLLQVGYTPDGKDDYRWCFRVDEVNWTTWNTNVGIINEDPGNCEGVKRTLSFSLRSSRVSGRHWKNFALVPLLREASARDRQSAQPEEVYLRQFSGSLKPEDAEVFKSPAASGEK
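Cells expressing TRPV1 were dye-loaded with Fluo-8 and read kinetically: 10 s baseline, 3 min after compound (agonist portion), then 2 min after EC20 capsaicin (allosteric enhancer portion). Calcium-bound dye fluorescence at 480/520 nm.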
Sfp inh = inhibitors of Bacillus subtilis Sfp phosphopantetheinyl transferase | 3.5% of 310,000 active | Biochemical Sfp PPTase activity, qHTS | Potency, µM, for inactives: max response, negative = inhibition, most hits filed as inhibitors; active means well fitted inhibition curve with a large enough effect; inconclusive means small, poorly fitted or top-dose-only effect, or another doubt; inactive means no such curve, though single readings can be large or run the other way;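 further: the enzyme is Sfp with the accession as filed and its product quenches rhodamine fluorescence; potency means the concentration at half of the fitted maximal effect; 0% = enzyme reaction without inhibitor and -100% = no enzyme wells; top concentration of the series not given in the record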
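Fluorescence-quenching assay with 15 nM Sfp, 5 uM rhodamine-CoA and 12.5 uM BHQ-2-labelled ybbR peptide in pH 7.6 Hepes/MgCl2 buffer. Enzyme was pre-incubated with compound for 15 min at room temperature. Rate was taken from the 30-min fluorescence change (525/598 nm).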
gsp agonist = agonists of gsp mutant (McCune-Albright syndrome); gsp mutant cells, cAMP HTRF, 30 min; control for the full effect not named in the record; Potency, µM (series often up to 76.9 µM), inactives show at the top dose activation (cAMP increase), actives largely listed as activators; 0.13% of 340,000 active; active = well fitted activation curve with a large enough effect; inconclusive = small, poorly fitted or top-dose-only effect, or another doubt; inactive = no such curve, though single readings can be large or run the other way; cell line not stated here;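 further: phosphodiesterase inhibitor Ro 20-1724 added with compounds to block cAMP breakdown; potency means the concentration at half of the fitted maximal effect; nearly all actives have a fitted effect of over 60% in size; about a fifth of the inactives were tested at one dose only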
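Cells stably selected in G418 were plated at 2000/well, grown 16-24 hr, then given compounds in DMSO with the PDE inhibitor […] (300 uM solution added) for 30 min at 37C; cAMP was read by HTRF.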
gsp antag = antagonizes gsp, the McCune-Albright syndrome mutation; gsp-mutant cells, cAMP HTRF, 30 min; control for the full effect not named in the record; Potency, µM (top dose mostly 76.9 µM), for the others: top-dose activity change, negative = inhibition, actives largely listed as inhibitors; 0.4% of 340,000 active; active = falling curve of any shape with a large fitted effect; inconclusive = falling curve, mostly with a smaller effect; inactive = flat or rising curve; cell line not stated here;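 further: intracellular cAMP measured with PDE inhibitor Ro 20-1724 present during compound exposure; potency means the concentration at half of the fitted maximal effect; on the % scale 0 is the no-effect control and ±100 the full control effect; nearly all actives have a fitted effect of over 65% in size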
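HTRF cAMP measurement after 30 min RT detection following 30 min, 37C compound treatment alongside […] (added as 300 uM solution) in G418-selected cells seeded at 2000/well and grown 16–24 h.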
An asterisk follows results filed as active; ? = inconclusive; / = not tested or not shown; [ ] = dose if it differs, or a comment. No enrichment for hits; about 5.3% have a hit in one of these screens.

SMILES	ClpP mod	Menin-MLL FL inh	CtBP-E1A inh	TRPV1 PAM	Sfp inh	gsp agonist	gsp antag
O=C(Nc1ccn(C2CC(OC(=O)c3ccccc3)C(CO)O2)c(=O)n1)c1ccccc1 (stereo not given)	-0.6%	1.4	1	5	6%	29%	-6%
CC(C)(C)c1nc(SCC(=O)Nc2nc3c(s2)CCCC3)c2ccccc2n1	-1.7%	0.9	-3	-2	18%	?	3%
O=C(COC(=O)CNC(=O)c1ccccc1)Nc1nnc(-c2ccccc2)o1	/	/	-28	-10	/	-26%[15.4 µM]	4%
N#CC1=C(N)N(c2ccccc2C#N)C2=C(C(=O)CCC2)C1c1ccsc1 (stereo not given)	-12%	0.9	2	13	1%	-10%	-12%
Cc1cccc(NC2=NCC(=O)N2Cc2cccs2)c1	/	-0.1	-9	7	9%	-13%[15.4 µM]	4%
Cc1ccn2c(=O)c(C(=O)O)cnc2c1	/	-2.7	8	?	10%	0%[15.4 µM]	1%
O=C(O)c1ccc(NCc2ccncc2)cc1	1.5%	-1.8	5	7	5%	7%	4%
C#CCOc1c(Br)cc(/C=N/O)cc1OCC	1.2%	4.1	18	9	9%	18%	2%
CN(c1ccccc1)S(=O)(=O)c1cccc(NC(=O)CN2C(=O)NC3(CCCC3)C2=O)c1	-2.1%	/	-1	10	/	14%	3%
CCOC(=O)C1CCN(C(=O)Nc2ccc(NC(=O)C3CCN(C(=O)OCC)CC3)cc2)CC1	-2.0%	0.2	-18	0	9%	11%	7%
CC(/C=N/NC(=O)c1cccs1)=C\c1ccco1	/	?	-2	-4	-22%	-25%[15.4 µM]	-3%
COc1ccc(C(=O)NCCc2ccc(C)cc2)cc1OC1CCN(C(C)=O)CC1	-0.4%	/	-1	13	7%	1%[15.4 µM]	-13%
CCOC(=O)C(=O)NNc1cccc(C)c1C	-3.7%	1.8	2	?	-1%	-80%[inhibitor]	0%
CC1=CC(=O)N(c2ccn(C)n2)C1=O	/	4.9	-5	-3	2%	17%[15.4 µM]	21%
COc1ccc(NC(=O)Nc2ccc3c(c2)C(=O)N([C@@H](C)CO)C[C@@H](C)[C@@H](CN(C)S(=O)(=O)c2cn(C)cn2)O3)cc1	-4.5%	/	-30	/	/	/	-6%
CC1CCCC(NC(=O)C2N(CCCN3CCCC3)C(=O)C3C(C(=O)Nc4ccc(Cl)cc4)C4C=CC32O4)C1C (stereo not given)	/	-2.4	10	-6	7%	3%	3%
O=S(=O)(NCCN1CCOCC1)c1ccc(-c2ccc(S(=O)(=O)NCCN3CCOCC3)cc2)cc1	-1.1%	1.3	5	-12	14%	-8%	-1%
CN(CCO)C1=CC(=O)CC(C)(C)C1	-1.6%	3.0	5	-4	9%	-13%	10%
COC(=O)c1[nH]cnc1C(=O)c1ccccc1	1.4%	-8.5	0	-3	15%	4%	9%
COc1ccc(C(=O)N/C(=C\c2cc(OC)c(OC)cc2[N+](=O)[O-])C(=O)NCC(=O)O)cc1	-6.6%	1.6	-4	1	2%	-21%[15.4 µM]	11%
CCn1c(C)c(C(=O)c2ccccc2)c(C#N)c1C(=O)O	-0.5%	6.3	-3	-24	7%	11%	-8%
Cc1ccc(-c2ccccc2NC(=O)CCl)o1	-3.5%	?	4	-12	20%	-29%	-2%
CC(C)(C)c1ccc(OCC(=O)NCCN2CCCC2)cc1	-1.2%	-1.9	0	10	?	-8%	2%
O=C(NCCS(=O)(=O)N1CCN(c2ccccc2F)CC1)c1ccc(Br)o1	-0.7%	-2.3	-2	-10	27%	-7%	-1%
CCOC(=O)CSc1nnc(-c2nnc(SCC(=O)OCC)n2CC)n1CC	-2.2%	-0.4	5	20	17%	1%	1%

(next part)
SMILES	ClpP mod	Menin-MLL FL inh	CtBP-E1A inh	TRPV1 PAM	Sfp inh	gsp agonist	gsp antag
COc1cc(NC(=O)COC(=O)c2ccc([N+](=O)[O-])s2)cc(OC)c1OC	-2.6%	/	?	/	/	-2%	3%
COc1ccc(-c2cc(C(=O)Nc3ccccc3O)c3ccccc3n2)cc1	/	/	-6	/	/	-14%[15.4 µM]	?
CC(O)c1cccc(N=Cc2ccc3ccccc3c2O)c1 (stereo not given)	-1.1%	0.0	/	-15	5%	-11%	-2%
C[C@@H]1CCCCCCCCC(=O)OCCN(C(=O)OC(C)(C)C)[C@H](C)CCCCCCCCC(=O)OCCN1C(=O)OC(C)(C)C	-0.1%	/	-5	/	/	-2%	15%
CCN(CC)c1ccc2c(C)c(CO)c(=O)oc2c1	/	-1.2	5	0	16%	2%	19%
CCCCOc1ccc(C(=O)Nc2ccc3c(c2)C(=O)NC3=O)cc1	5.0%	1.1	-3	16	20%	-10%	-10%
COc1ccc(C(C2C(=O)CC(C)(C)CC2=O)C2C(=O)CC(C)(C)CC2=O)cc1COCC(F)(F)F	-0.8%	-2.9	4	11	?	?	-5%
Cc1cc(C)n2c(Br)c(CSc3nc4ccccc4s3)nc2n1	?	1.3	6	3	-24%	7%	20%
Cc1cc(C)nc(NC(=O)c2cc(-c3ccc4c(c3)OCO4)nc3ccccc23)c1	-3.2%	2.4	0	7	-5%	-66%[inhibitor]	-19%
Cc1cc(C)n2nc(-c3cnn(C)c3C(F)(F)F)cc2n1	-20%	-6.4	3	24	8%	12%	-14%
CC1=NNC(=O)C1CCC(=O)N/N=C(\C)c1ccc(Cl)cc1 (stereo not given)	/	0.6	2	0	2%	-11%[15.4 µM]	3%
Cc1ccc(NC(=S)NN2CCN(C)CC2)cc1	-2.0%	9.6	-15	1	14%	-33%[inhibitor]	1%
O=C(CCS(=O)(=O)c1cccs1)Nc1ccc(C(=O)NC2CCN(Cc3ccccc3)CC2)cc1	-2.6%	-5.8	/	9	4%	1%	5%
CCC(=O)n1nc(-c2cccnc2)nc1NCc1ccccc1	/	-1.6	-1	0	16%	-4%[15.4 µM]	-44%
COc1ccc(CNC(=O)c2ccc(NC(=O)C3=CSCCO3)cc2)cc1	-2.3%	/	/	8	16%	-30%	-2%
CC(=O)Nc1c(-c2ccccc2)nc2ccc(Cl)cn12	3.7%	/	/	/	/	-1%	4%
O=C(NCC(c1ccco1)N1CCc2ccccc2C1)c1c(F)cccc1F (stereo not given)	0.4%	/	3	5	/	4%	0%
COc1cccc(N(CC(=O)NC2CCCCC2)C(=O)Cn2nnc(-c3ccc(C)o3)n2)c1	/	2.7	0	11	16%	7%[15.4 µM]	-11%
Cc1ccc(CNC(=O)COC(=O)c2ccc(S(=O)(=O)NCc3ccco3)cc2)cc1	-0.3%	/	3	4	/	-143%[inhibitor]	-7%
O=C(Oc1ccc(C(=S)N2CCOCC2)cc1)c1ccc(Br)cc1	0.4%	4.5	8	2	1%	30%	15%
O=C(OCCCN=C1NS(=O)(=O)c2ccccc21)C1CC(=O)N(c2ccc(Cl)cc2)C1 (stereo not given)	-2.2%	-0.8	4	29	-11%	-38%[inhibitor]	-7%
COc1ccc(CCNc2nc(-c3ccc(O)cc3)cs2)cc1OC	1.4%	13	-2	4	?	7%	35µM*
CCOC(=O)CCCNC(=O)COC(=O)c1cccc(F)c1	/	-2.1	-19	5	12%	9%	-5%
CCN(Cc1ccccc1)C(=O)Cc1c[nH]c2ccccc12	/	3.6	-16	-3	-7%	-11%[15.4 µM]	-3%
CCCNC(=O)OCCC12CC3CC(CC(C3)C1)C2	1.1%	/	24	8	-13%	-6%	-4%

Later entries
SMILES	ClpP mod	Menin-MLL FL inh	CtBP-E1A inh	TRPV1 PAM	Sfp inh	gsp agonist	gsp antag
O=[n+]1cc(-c2ccc(Br)cc2)n([O-])c2c1CCC2	-1.0%	1.2	-2	11	-11%	-2%	8%
Cn1c(CC(=O)c2ccc(Br)cc2)[n+](C)c2ccccc21	-0.2%	0.7	11	?	0%	-2%[15.4 µM]	21%
Cn1c(N/N=C2\CCCc3ccccc32)nc2c1c(=O)n(Cc1ccccc1)c(=O)n2C	?	2.0	-19	0	14%	-29%	8%
C[C@@H]1CN([C@@H](C)CO)C(=O)Cc2cc(NS(=O)(=O)c3ccccc3)ccc2O[C@H]1CN(C)Cc1ccncc1	-0.2%	/	-3	/	/	/	-7%
COc1ccccc1C(=O)OCC(=O)Nc1ccc(OC(F)F)cc1	-9.7%	0.0	11	6	12%	-4%	8%[15.4 µM]
Cc1cccc2c1cnn2C(=O)CCC(=O)NCC(C)c1ccccc1 (stereo not given)	1.4%	-0.6	-11	-17	-7%	24%	6%
O=C(CSc1nnc(Cc2cccs2)n1-c1ccccc1)Nc1ccc2c(c1)OCCO2	-1.0%	-0.9	1	6	-1%	?	-11%
CN(Cc1cc2ccccc2[nH]c1=O)C(=O)COc1ccccc1	-19%	?	3	29	12%	27%	0%
CC(C(=O)Nc1cc(Cl)cc(Cl)c1)N1CCCC1 (stereo not given)	-1.5%	-8.4	-8	-26	2%	0%	11%
CCOC(=O)N1CCN(C(=O)c2nn(C)c3c2CSc2ccccc2-3)CC1	-1.4%	-0.8	2	?	-2%	-64%[inhibitor]	0%

One compound at a time (already shown). Order of values: ClpP mod | Menin-MLL FL inh | CtBP-E1A inh | TRPV1 PAM | Sfp inh | gsp agonist | gsp antag
Profile of C[C@@H]1CN([C@@H](C)CO)C(=O)Cc2cc(NS(=O)(=O)c3ccccc3)ccc2O[C@H]1CN(C)Cc1ccncc1 = -0.2% | / | -3 | / | / | / | -7%
Profile of CN(Cc1cc2ccccc2[nH]c1=O)C(=O)COc1ccccc1 = -19% | ? | 3 | 29 | 12% | 27% | 0%
Profile of COc1ccccc1C(=O)OCC(=O)Nc1ccc(OC(F)F)cc1 = -9.7% | 0.0 | 11 | 6 | 12% | -4% | 8%[15.4 µM]
Profile of Cn1c(CC(=O)c2ccc(Br)cc2)[n+](C)c2ccccc21 = -0.2% | 0.7 | 11 | ? | 0% | -2%[15.4 µM] | 21%
Profile of CC(C(=O)Nc1cc(Cl)cc(Cl)c1)N1CCCC1 (stereo not given) = -1.5% | -8.4 | -8 | -26 | 2% | 0% | 11%
